# Screening data deposited in PubChem BioAssay by National Center for Advancing Translational Sciences (NCATS).
# HSD17B inh: inhibitors of human HSD17B10 dehydrogenase; 75,000 compounds, 7.6% hits; Potency, µM (doses to about 57.1 µM), for inactives: at the highest dose activity change, negative = inhibition, most hits filed as inhibitors; AID 893; recombinant HSD17B10, NADH fluorescence kinetic; many of its hits are not listed in these tables; Q99714; active = well fitted inhibition curve with a large enough effect; inconclusive = small, poorly fitted or top-dose-only effect; inactive = no such curve, though single readings can be large or run the other way;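 also: the protocol describes HADH2 (HSD17B10) and not the HSD17B4 of the title; nearly all actives have a fitted effect of over 70% in size; most hits overshoot -100% by far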
#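 20 nM HADH2, pH 9.0 Tris/Tween; cpd preinc 15 min RT; start w/ 1 mM NAD+ + 90 uM b-hydroxybutyryl-CoA; kinetic fluor ex360/em450 q30s x 4 min; delta last-first.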
# Numbers without * were called inactive; ? = inconclusive; [ ] = dose if it differs, or a comment. % is scaled to controls: 0 for no effect and ±100 for the full control effect; potency is read from the fitted curve at half-maximal effect. Not all compounds are listed; count on the stated rates, not on these rows.
Structure | HSD17B inh
CCOc1cc(/C=N/O)cc(Br)c1OC | ?
CCc1ccc2oc(-c3ccc(N)cc3)nc2c1 | 25.1µM*
CC(=O)NC1Sc2ccccc2N=C1c1ccccc1 (stereo unspecified) | ?
CCOc1cccc(C(=O)Nc2nc(-c3ccc(S(=O)(=O)N4CCOCC4)cc3)cs2)c1 | ?
Cc1noc(NS(=O)(=O)c2ccc(NC(=O)c3cnc4scc(C)n4c3=O)cc2)c1C | -10.7%
O=C1c2ccccc2C(=O)N1C/C=C/c1ccccc1 | 3.4%
COc1ccc(CNC(=O)C(C)NC(=O)c2cc3ccccc3o2)cc1 (stereo unspecified) | -10.5%
O=C(NCC(=O)N(Cc1ccco1)C(C(=O)NC1CCCC1)c1cccnc1)c1cccs1 (stereo unspecified) | 4.1%
Cc1c(-c2ccccc2)[n+](=O)c(-c2ccco2)c(C)n1[O-] | ?
Nc1c(S(=O)(=O)O)cc(Nc2cccc(S(N)(=O)=O)c2)c2c1C(=O)c1ccccc1C2=O | 3.16µM*
Nn1c(Cc2ccccc2F)nnc1SCC(=O)N1CC(=O)Nc2ccccc21 | -5.7%
CCCn1c(SCc2ccccc2)nc2c1c(=O)[nH]c(=O)n2C | -4.5%
CCOC(=O)C1=C(O)CSC1=Nc1ccccc1 | 7.3%
COc1c2ccoc2cc2oc(C)cc(=O)c12 | -1.4%
COC(=O)CS(=O)(=O)c1nnc([C@H](Cc2ccccc2)NC(=O)OC(C)(C)C)o1 | ?

# Following part.
Structure | HSD17B inh
CCOC(=O)c1ccc(NC(=O)CSc2nccn2C)cc1 | 2.0%
OC(CN1CCOCC1)CN(c1ccccc1)c1ccccc1 (stereo unspecified) | ?
OC1CCCN(Cc2ccc3c(c2)Cc2ccccc2-3)C1 (stereo unspecified) | -5.6%
CCOc1ccc(S(=O)(=O)N2CCCCC2)c2ccccc12 | -3.4%
O=C(CN1C(=O)NC2(CCOc3ccccc32)C1=O)Nc1ccc2c(c1)OCCO2 (stereo unspecified) | 7.6%
O=C(C1CCN(S(=O)(=O)c2cccnc2)CC1)N1CCN(c2ccc(Cl)cc2)CC1 | 7.5%
Cc1nn(-c2ccccc2)c(C)c1NC(=O)c1ccc(S(=O)(=O)N2CCCC2)cc1 | 9.0%
COCCNC(=O)CN1CCC(NC(=O)Nc2ccc(C(F)(F)F)cc2)CC1 | -7.3%
CCN1CCN(C(=O)c2nn(-c3ccc(OC)cc3)c(=O)c3c2c2ccccc2n3C)CC1 | 4.6%
CCc1ccc(OCc2nnc(SCC(=O)NCc3ccco3)o2)cc1 | 10.1%
CCOc1ccc(C2C(C#N)=C(N)SC(N)=C2C#N)cc1OCC | ?
C/C(=C\C#N)n1nc(C)cc1N | 12.8%
O=C(CN1CCN(C(c2ccccc2)c2ccccc2)CC1)N1CCOCC1 | 14.0%
C=C1CCC2[C@](C)(CO)C(O)CC[C@]2(C)C1C/C=C1/C(=O)OCC1O (stereo partly specified) | -0.4%
Cc1noc(C)c1S(=O)(=O)NC1CCN(Cc2ccccc2)CC1 | 7.0%

# Reprinted at random: 6 entries already listed.
Structure | HSD17B inh
C/C(=C\C#N)n1nc(C)cc1N | 12.8%
CCOc1ccc(C2C(C#N)=C(N)SC(N)=C2C#N)cc1OCC | ?
CCc1ccc(OCc2nnc(SCC(=O)NCc3ccco3)o2)cc1 | 10.1%
O=C(CN1C(=O)NC2(CCOc3ccccc32)C1=O)Nc1ccc2c(c1)OCCO2 (stereo unspecified) | 7.6%
CCOC(=O)c1ccc(NC(=O)CSc2nccn2C)cc1 | 2.0%
OC(CN1CCOCC1)CN(c1ccccc1)c1ccccc1 (stereo unspecified) | ?

# The list goes on:
Structure | HSD17B inh
CNC(=O)c1nnn(Cc2ccccc2)c1NC(C)=O | 7.2%
N[C@@H](CSc1nc2ccccn2c1[N+](=O)[O-])C(=O)O | 1.8%[11.4 µM]
CCOC(=O)c1[nH]c2ccc(OC)cc2c1NC(=O)CN1CCSCC1 | 31.6µM*
CCCCC/C=C\C/C=C\CCCCCCCC(=O)O | ?
Cc1nc(NC2=NCN(Cc3ccc4c(c3)OCO4)CN2)nc2ccccc12 | 0.5%
COc1ccc(N2CCN(C(=O)CSc3nnc(CNc4ccccc4)o3)CC2)cc1 | -1.2%
O=C(c1ccc(S(=O)(=O)N2CCCCC2)cc1)N1CCN(Cc2ccc3c(c2)OCO3)CC1 | 0.0%
CCC(=O)N(Cc1ccc2c(c1)OCO2)Cc1cc2cc(OC)ccc2[nH]c1=O | 31.6µM*
COc1ccc(C2C(C(=O)O)CC(=O)N2c2ccc(OC)cc2)cc1 (stereo unspecified) | 4.0%
COCCN1Cc2cccc(C(=O)Nc3cc(OC)ccc3OC)c2C1=O | -3.9%
Cc1cccc(OCC(=O)Nc2cccc(O)c2)c1 | -15.7%
CC(C)CC(c1nnnn1C1CCCCC1)N1CCN(c2ncccn2)CC1 (stereo unspecified) | 8.9%
O=C(Cn1c(C(F)(F)F)nc2ccccc21)NCCN1CCCC1 | -8.9%
Cc1cc(NC(=O)CSc2nc3c([nH]c4ccccc43)c(=O)n2-c2cccc(C(F)(F)F)c2)no1 | ?
COc1ccc(-c2c(C)nn3c(N4CCN(Cc5ccccc5)CC4)cc(C)nc23)cc1OC | -1.9%

# For reference, 3 of the compounds above:
Structure | HSD17B inh
O=C(Cn1c(C(F)(F)F)nc2ccccc21)NCCN1CCCC1 | -8.9%
Cc1cc(NC(=O)CSc2nc3c([nH]c4ccccc43)c(=O)n2-c2cccc(C(F)(F)F)c2)no1 | ?
COc1ccc(-c2c(C)nn3c(N4CCN(Cc5ccccc5)CC4)cc(C)nc23)cc1OC | -1.9%

# (next part)
Structure | HSD17B inh
COc1ccc(S(=O)(=O)N[C@H](C(=O)N2CC[C@@]3(O)CCCC[C@H]3C2)c2ccccc2)cc1 | 0.0%
CCC(=O)OC1C2CC3=C4CC(=O)OC(c5ccoc5)[C@]4(C)CCC3[C@@](C)(C2=O)C(CC(=O)OC)C1(C)C (stereo partly specified) | 8.1%
Fc1ccc(NCc2nnc(SCc3nnc(-c4ccccc4)o3)n2Cc2ccccc2)cc1 | -3.5%
CC(=O)Nc1ccc(S(=O)(=O)Nc2ccc(NC(=O)c3ccco3)cc2)cc1 | -3.3%
CC(CC(=O)NCc1ccccc1)C1CCCO1 (stereo unspecified) | 4.8%
CCOC(=O)C1=C(N)OC2=C(C(=O)CCC2)C1c1ccccc1OCC (stereo unspecified) | -1.5%
CCC1(c2ccccc2)NC(=O)N(CC(=O)Nc2ccc3c(c2)OCO3)C1=O (stereo unspecified) | 1.1%
COc1ccc(N2CCN(CCCNC(=O)C3(S(=O)(=O)c4ccc(Cl)cc4)CC3)CC2)cc1 | 9.1%
Cc1nn(Cc2ccccc2)c(C)c1C(=O)Nc1ccc(N2CCOCC2)cc1 | -0.9%
Cc1ccc(-c2nnn(Cc3nc(N)nc(N4CCOCC4)n3)n2)cc1 | -0.2%
COc1cc(OC)c(-c2nn3c(-c4cccnc4)nnc3s2)cc1OC | -16.9%
COc1ccc(-c2noc(CCC(=O)NCc3cc(Br)ccc3OC)n2)cc1 | -9.6%
c1cnc(NC2C3CC4CC(C3)CC2C4)nc1 (stereo unspecified) | ?
COc1ccc(COC(=O)N/N=C2/C[C@@H](O)[C@@H](O)[C@@H]3[C@@H]4C(=O)N([C@@H](C)c5ccccc5)C(=O)[C@H]4CC[C@@H]23)cc1 | -1.1%[11.4 µM]
Cc1ccccc1Cn1ccc(NC(=O)c2cc3nc(-c4ccco4)cc(C(F)(F)F)n3n2)n1 | ?

# Further structures follow.
Structure | HSD17B inh
Cc1cc(C)c(S(=O)(=O)NCc2cn3c(C)csc3n2)cc1C | 0.2%
Cc1noc(C)c1C(=O)N1CCC2(CCN(C(=O)NC(C)C)CC2)CC1 | 2.3%
O=c1cc(CSc2nnnn2-c2ccccc2)nc2scc(-c3ccccc3)n12 | -24.7%
O/N=C1\CCCc2nnc3c(c21)CCCC3 | -8.6%
COCC(=O)N1CCC(n2nnc3cc(F)ccc32)CC1 | -6.7%
CS(=O)(=O)NCc1ccc(C(=O)NC2CCCCC2)cc1 | 6.5%
CCC(C(=O)O)n1nnc(-c2ccc(-c3ccc(OC)cc3)cc2)n1 (stereo unspecified) | 31.6µM*
COC(=O)c1cc(OC)c(OC)cc1N=CC1=C(O)CC(C)(C)CC1=O | 27.6%
CCN(CC)CCCn1c(-c2ccccc2)nc2c(N3CCOCC3)nc(C)nc21 | 31.6µM*
COC(=O)[C@@]1(Cc2ccccc2)[C@H]2c3cc(C(=O)N4CCCC4)n(CCO)c3C[C@H]2CN1C(=O)c1ccccc1 | 14.4%
Clc1ncn(C23CC4CC(CC(C4)C2)C3)n1 | 8.0%
COc1ccc(OC)c(C2C(C(=O)c3cccs3)=C(O)C(=O)N2c2cc(C)on2)c1 (stereo unspecified) | -3.5%
COc1ccc(-c2nc(CS(=O)CC(=O)NCc3cccnc3)c(C)o2)cc1 (stereo unspecified) | -22.8%
CCN(Cc1ccccc1)C(=O)Cn1cc2c(n1)CCCC2 | 6.1%
Cc1ccc(SCCC(=O)NCc2ccco2)cc1 | 3.0%

# Next compounds:
Molecule	HSD17B inh
O=C(O)CSCCCC(=O)Nc1ccc(Br)cc1	0.8%
CCN(CC)CCCN1C(=O)c2oc3ccccc3c(=O)c2C1c1cc(OC)ccc1OC (stereo unspecified)	-3.7%
O=C(NCCCN1CCCCCC1)c1ccc(N2CCCC2=O)cc1	13.3%
CC(=O)c1cccc(NC(=O)C2CCCN(S(=O)(=O)c3cccc4cccnc34)C2)c1 (stereo unspecified)	0.6%
CCCSc1ncnc2c1oc1ccccc12	-10.6%
CCOC(=O)CN(Cc1ccccc1)S(=O)(=O)c1ccc(NC(C)=O)cc1	0.4%
COc1cccc(C(C(=O)NC2CCCC2)N(C(=O)c2ccco2)C2CC2)c1OC (stereo unspecified)	1.7%
COc1ncc2nc(-c3ccccc3)c(=O)n(-c3ccccc3)c2n1	31.6µM*
Cc1cc(C)nc(N2CCC(C(=O)Nc3cccc(C(F)(F)F)c3)CC2)n1	-11.4%
CCn1c(=O)n(CC(=O)Nc2cc(OC)ccc2OC)c(=O)c2ccccc21	-0.3%
COc1ccc(N2CCN(C(=O)c3ccc(NS(=O)(=O)c4ccc(F)c(F)c4)cc3)CC2)cc1	3.2%
COc1ccc(NC(C)=O)cc1NC(=O)CN1CCN(CC(=O)Nc2ccccc2Cl)CC1	7.6%
CC(C)CN(CCCNC(=O)CC1Oc2ccccc2NC1=O)CC(C)C (stereo unspecified)	5.0%
Cc1ccc(N(C)C(=O)N2CCN(S(=O)(=O)c3ccc(C)cc3)CC2)cc1	-7.2%
C=CC[C@@H]1C=C[C@H](O/N=C(\C)CCN2CCCCc3nc(C)c(C)cc32)[C@H](CO)O1	1.3%[11.4 µM]
NC(=O)c1cccn1Cc1ccccc1Cl	12.4%
O=C(NC12CC3CC(CC(C3)C1)C2)N1CC2Cc3cccc(=O)n3C(C2)C1 (stereo unspecified)	-7.4%
Cn1nnc2c(N3CCCCC3)nccc21	-8.4%
Cc1nc2ccc(NC(=O)Cn3cnc4c3c(=O)n(C)c(=O)n4C)cc2s1	-2.7%
CC(C)NC(=O)c1c(O)c2ccccc2[nH]c1=O	5.3%
CSC(=NS(=O)(=O)c1ccc(C)cc1)SC	-7.4%
O=C(O)c1ncc(-c2ccccc2)cn1	2.3%
Cn1c(SCC(=O)NC2CCCCCC2)nnc1-c1cccs1	-2.2%
Nc1nc(-c2ccccc2)nn1C(=O)Cc1ccccc1	-5.0%
O=C(Cc1c(C(=O)O)[nH]c2ccccc12)NCCN1CCN(c2cccc(Cl)c2)CC1	4.0%

# Later entries.
Molecule	HSD17B inh
CCOc1ccc(S(=O)(=O)N(CC(=O)O)c2ccc(C)cc2)cc1	10.2%
CC(C)c1ccc(-c2nnn(CCC(=O)O)n2)cc1	6.2%
O=C(O)c1cccc(N2CCCC2)c1	25.1µM*
COc1ccc(-n2c(CNC(=O)c3ccc(S(=O)(=O)N4CCCC4)cc3)n[nH]c2=S)cc1	-6.6%
Cc1c(C(=O)NC2CCCCC2)oc2c1C(=O)CC(C)(C)C2	3.7%
COc1cccc(C(=O)NCc2ccccc2OC)c1	-2.1%
CC1(C)OC(C(N)=O)C(C(N)=O)O1 (stereo unspecified)	3.1%
CCOc1ccc(C2CC(c3cccc(OC)c3)Nc3nc(N)nn32)cc1 (stereo unspecified)	3.8%
COc1ccc(CN(C(=O)c2snc(C(N)=O)c2N)C(C(=O)NC(C)(C)C)c2ccco2)cc1 (stereo unspecified)	-28.4%
CC1CCCCN1Cc1nc2c(c(=O)n(C)c(=O)n2C)n1CCCc1ccccc1 (stereo unspecified)	12.7%
O=C(Nc1cccnc1)Nc1ccc(Br)cc1Cl	3.6%
CC1C(c2ccccc2)=[N+]([O-])C2(CCCC2)N1O (stereo unspecified)	-1.9%
COC(=O)c1ccccc1NC(=O)Nc1nnc(N2CCCCC2C)s1 (stereo unspecified)	-13.3%
CCOC(=O)c1cc(-c2ccccc2)n(CC(=O)N2CCCC2)c1C	-1.9%
Clc1ccc(C(c2nnnn2C2CCCC2)N2CCN(Cc3ccncc3)CC2)cc1 (stereo unspecified)	12.0%
Cc1nc(C)c(C(=O)Nc2nc3c(C)cccc3s2)o1	25.1µM*
O=C(Cc1ncn[nH]1)NCCc1ccccc1	3.6%
NC(=O)c1cc(Br)cc2c3c([nH]c12)CCCC3	?
CC(C)C(NC(=O)C12CC3CC(CC(C3)C1)C2)C(=O)NC1=NCCS1 (stereo unspecified)	-1.3%
CCCSC1=C(C#N)C(c2ccccc2C)C(C(=O)OC)C(=O)N1 (stereo unspecified)	-24.4%
N#CCc1ccc(NS(=O)(=O)c2ccc(N3CCCC3=O)cc2)cc1	2.3%
O=[N+]([O-])c1ccc(-c2nc(-c3ccc(F)cc3)c(-c3ccncc3)[nH]2)cc1	-22.4%
O=C(O)c1cccc2[nH]c(C(F)(F)F)nc12	5.6%
COC(=O)CN1C(=O)C2(OCCCO2)c2ccccc21	-1.6%
